UCH37 DUB inh = blocks the human deubiquitinase UCH37 | purified proteasome/UCH37, Ub-AMC cleavage fluorescence | inhibition, % (test concentration not listed) | hit rate 0.33% among 330,000 | Q9Y5K5;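 active = mean of two replicates above 20%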;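 also: 0% = compound-free wells with enzyme and 100% = wells lacking proteasome; stock transfer was 100 nL into about 20 µL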
Target sequence (Q9Y5K5 whole entry, looked up): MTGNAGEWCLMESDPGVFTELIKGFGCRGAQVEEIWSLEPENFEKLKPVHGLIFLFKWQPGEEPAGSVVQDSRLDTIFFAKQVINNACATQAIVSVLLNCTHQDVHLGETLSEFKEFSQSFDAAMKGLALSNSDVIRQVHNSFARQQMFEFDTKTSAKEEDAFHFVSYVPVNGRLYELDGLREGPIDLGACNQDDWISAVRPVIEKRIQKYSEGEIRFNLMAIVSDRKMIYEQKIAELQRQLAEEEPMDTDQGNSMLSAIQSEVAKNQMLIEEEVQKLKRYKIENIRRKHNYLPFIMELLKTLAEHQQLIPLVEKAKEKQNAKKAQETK
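System: Proteasome-associated human UCH37 deubiquitinase; Input: 0.15 nM proteasome in added enzyme buffer; Also added: Ub-AMC substrate from 1 µM stock; Incubation: 30 min compound-proteasome preincubation then 25 min substrate reaction, room temperature; Detection: fluorescence, ex 355 nm, em 460 nm; Read-out: % inhibition of Ub-AMC cleavage fluorescence; Benchmarks: no-proteasome and no-compound wells.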
E coli growth = E. coli growth inhibition | OD600 absorbance (concentration not given with the values) | Escherichia coli growth, OD600, 23 h; hits give low values | hit rate 0.21% among 330,000;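 active = OD600 absorbance below the run mean of sample wells minus 3.6 SD, in any replicate, cut at about 0.56 in these data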;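 also: stock transfer was 300 nL into about 60 µL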
* = called active by the depositor. These rows are one share of the data (hit frequency here may not be typical).

SMILES	UCH37 DUB inh	E coli growth
COc1cc(C=NNC(=O)c2sc3ccccc3c2Cl)ccc1OC(=O)c1ccc([N+](=O)[O-])cc1	2.8	0.75
COc1cc(C=NNC(=O)COc2ccccc2C)ccc1OC(=O)c1cccs1	-1.6	0.69
Cc1cccc(OCCn2cc(C=NNC(=O)c3ccncc3)c3ccccc32)c1	0.9	0.67
O=C(NN=Cc1cccs1)c1cccnc1	5.6	0.68
Cc1ccsc1C=NNC(=S)NCCc1ccccc1	1.5	0.7
CCC(C)=NNc1nc2sc3c(c2c(=O)[nH]1)CC(C)(C)OC3	0.9	0.68
CCCCC(=O)NN=C(C)CC(=O)Nc1cc(Cl)ccc1OC	1.0	0.75
CCNC(=S)NN=Cc1c(Cl)cccc1Cl	5.0	0.74
Cc1ccc(C)c(S(=O)(=O)c2c(N)n(N=Cc3ccco3)c3nc4ccccc4nc23)c1	-84	0.76
COc1ccccc1NS(=O)(=O)c1ccc(NN=Cc2c(C)nn(-c3ccccc3)c2N2CCCC2)c([N+](=O)[O-])c1	11	0.76
Cc1ccc(-c2n[nH]c(=S)n2N=C/C=C\c2ccccc2[N+](=O)[O-])cc1	7.9	0.72
COc1cc(C=NNc2ccc(F)cc2F)cc(OC)c1OC	1.7	0.71
CC1CCCCC1NC(=O)CON=Cc1ccc(OC(F)F)cc1 (stereo not given)	3.2	0.67
O=C(NN=Cc1ccc(Cl)cc1Cl)c1ccncc1	2.5	0.67
Cn1c(=O)[nH]c(=O)c2c1nc(NN=Cc1cccnc1)n2Cc1ccc(Cl)cc1	-211	0.7
CSc1cc(C=NO)c(SC)s1	3.2	0.78
O=C(NN=Cc1cc(Br)c(Br)o1)c1cc2ccccc2o1	-56	0.67
Cc1cc(C)c2c(c1)C(=NNC(=O)c1cc(C)oc1C)CCC2	1.7	0.73
NC(=NOC(=O)c1ccccc1F)c1cccc([N+](=O)[O-])c1	1.1	0.64
O=C(NN=Cc1cccnc1)c1cc(-c2ccccc2)nc2ccccc12	2.4	0.65
CN(C)C=Nc1c(C#N)cnn1C	0.3	0.71
O=C(NN=Cc1ccc(OCc2ccc(F)cc2)cc1)c1ccccc1	2.8	0.67
COc1ccc(C=NNc2nc3ccccc3s2)cc1O	-3.5	0.61
COc1ccc(C=NNC(=O)c2ccccc2O)cc1COc1ccccn1	7.7	0.65
Nc1nonc1-n1nnc(C(=O)NN=Cc2cccc(O)c2)c1CN1CCCC1	3.1	0.64
CC(=NNC(=O)c1nnn(-c2nonc2N)c1CN(C)c1ccccc1)c1cccc(O)c1	1.6	0.68
COc1cc(OC)c(C=NNC(=O)c2ccc(NC(C)=O)cc2)cc1Br	-19	0.74
O=C(NN=Cc1cc2c(cc1Cl)OCO2)c1ccc(Br)s1	-16	0.66
O=C(NN=Cc1c[nH]c2ccccc12)c1cc(Br)ccc1O	-40	0.64
FCCCOc1ccc(C=NOCc2ccc(Cl)cc2)cc1	5.5	0.78
Cn1c(Cl)c(C=NOC(=O)C2CC2)c2ccccc21	0.5	0.69
COc1ccc(C=NNC(=S)Nc2ccccc2)cc1	5.0	0.65
Cn1c(Cl)c(C=NOC(=O)c2ccccc2Cl)c2ccccc21	1.1	0.77
COc1ccc(C(C)=NNC(=O)CNC(=O)c2ccncc2)cc1	7.2	0.65
CC(CC(=O)NC(C)C)=NNC(=O)COc1cc(C)c(Br)cc1Br	2.7	0.69
CC1CCN(Cc2c(C(=O)NN=Cc3cccc(Cl)c3)nnn2-c2nonc2N)CC1	4.4	0.72
O=c1c2c3c(sc2ncn1N=Cc1ccncc1)CCCC3	3.5	0.72
CC(=NNc1ccc(C(=O)O)cc1)c1ccc(-n2ccnc2)cc1	14	0.68
CC(=NNC(=O)CNC(=O)Cc1ccccc1)c1ccco1	3.9	0.68
O=C(C[n+]1ccccc1)NN=Cc1c(F)cccc1Cl	1.0	0.68
O=C(NN=Cc1ccccc1[N+](=O)[O-])c1ccc(CN2CCOCC2)cc1	3.8	0.64
CCOc1ccc(NC(=O)CC(C)=NNC(=O)Cc2cccs2)cc1	-0.5	0.66
CC(=N/N=C1/NC(=O)C(Cc2ccccc2)S1)c1ccccc1 (stereo not given)	0.7	0.65
COc1ccc2ccccc2c1C=NNc1cccc(C(=O)O)c1	1.3	0.64
CCOC(=O)CC(=NNc1ncnc2ccccc12)c1ccccc1	6.0	0.66

Structural class: the compounds so far containing a nitro group on carbon
SMILES	UCH37 DUB inh	E coli growth
COc1cc(C=NNC(=O)c2sc3ccccc3c2Cl)ccc1OC(=O)c1ccc([N+](=O)[O-])cc1	2.8	0.75
COc1ccccc1NS(=O)(=O)c1ccc(NN=Cc2c(C)nn(-c3ccccc3)c2N2CCCC2)c([N+](=O)[O-])c1	11	0.76
Cc1ccc(-c2n[nH]c(=S)n2N=C/C=C\c2ccccc2[N+](=O)[O-])cc1	7.9	0.72
NC(=NOC(=O)c1ccccc1F)c1cccc([N+](=O)[O-])c1	1.1	0.64
O=C(NN=Cc1ccccc1[N+](=O)[O-])c1ccc(CN2CCOCC2)cc1	3.8	0.64

Entries of single compounds from above.
Shown for O=C(NN=Cc1cc2c(cc1Cl)OCO2)c1ccc(Br)s1 = UCH37 DUB inh: -16; E coli growth: 0.66
Shown for Cc1ccc(C)c(S(=O)(=O)c2c(N)n(N=Cc3ccco3)c3nc4ccccc4nc23)c1 = UCH37 DUB inh: -84; E coli growth: 0.76

Following part.
SMILES	UCH37 DUB inh	E coli growth
O=C(NCCCN1CCOCC1)C(=O)NN=Cc1ccccc1Cl	2.8	0.69
O=C(COc1ccc(Br)cc1)NN=C1SCC(=O)N1c1ccc(F)cc1	6.0	0.73
CC12CCC(C(=O)N(CSC(=S)NN=Cc3ccccc3Cl)C1=O)C2(C)C (stereo not given)	7.0	0.64
Brc1ccc(-c2csc(NN=Cc3cccnc3)n2)cc1	4.0	0.73
CSc1ccc(C=NNC(=O)CN2CCN(Cc3ccccc3)CC2)cc1	-7.5	0.72
COC(=O)c1cnn(-c2ccccc2)c1C=NNC(=S)Nc1ccc(Cl)cc1	8.5	0.72
COc1cc(C=NNC(=O)c2ccc(C)nc2)cc([N+](=O)[O-])c1O	20	0.68
CC1CCCC(C)N1N=Cc1ccc(O)cc1 (stereo not given)	5.0	0.64
CC(/C=C/c1ccc2c(c1)OCO2)=NNC(=O)C1COc2ccccc2O1 (stereo not given)	-21	0.68
COc1cccc2c1OC(=NO)C(C(=O)Nc1cccc(Br)c1)C2 (stereo not given)	3.4	0.67
COc1ccc(C(C)=N/N=C2/NC(=O)CC(C(=O)O)S2)cc1F (stereo not given)	8.9	0.68
CC(=NNC(=O)CSc1nc(C)cc(C)n1)c1ccc([N+](=O)[O-])cc1	4.8	0.63
COC(=O)c1ccc(-n2c(C)cc(C=Nn3cnnc3)c2C)cc1	3.5	0.71
COc1ccc(C=NNC(=S)N[C@H]2CC3CCC2C3)cc1 (stereo not given in full)	5.0	0.71
CON=CC(C#N)c1ncc(C(F)(F)F)cc1Cl (stereo not given)	0.4	0.68
CC(=NNc1ccccc1C(=O)O)c1ccncc1	19	0.64
Cn1c(N2CCOCC2)c(C=NO)c2ccccc21	-2.3	0.69
CC(CC(=O)Nc1ccc(Br)cc1)=NNC(=O)Cc1csc(N)n1	2.6	0.72
COc1ccc(/C=C2/S/C(=N/N=C3CC4CCC3(C)C4(C)C)NC2=O)cc1 (stereo not given)	0.1	0.73
NC(=S)NN=Cc1c(O)ccc2ccccc12	3.3	0.65
CC(=NO)C1(C)N(O)C(C)(C)C(c2ccc(F)cc2)=[N+]1[O-] (stereo not given)	-1.0	0.7
CC(C)C[C@H](NC(=O)OC(C)(C)C)C(=O)NN=CC1=Cc2ccccc2OC1C (stereo not given in full)	-52	0.66
CC(=NNC(=S)NC1CCCCC1)c1ccc(C)o1	4.5	0.68
C(=NN1CCN(c2ccccc2)CC1)c1ccncc1	1.6	0.66
COc1cc(C=NO)cc(Br)c1OCc1cccc(Cl)c1	-0.8	0.67
COCCNC(=S)NN=C(C)c1ccccc1F	1.0	0.67
O=C(NN=Cc1cn(-c2ccccc2)nc1-c1cccs1)c1ccncc1	-67	0.72
O=C(NN=CC1=C(N2CCOCC2)/C(=C\c2ccccc2)CC1)Nc1ccccc1	7.9	0.74
Cc1ccc(NC(=S)NN=Cc2ccc(OCCC(C)C)cc2)c(C)c1	0.7	0.64
COc1ccccc1/C=C\C=Nn1c(-c2ccc(Cl)cc2Cl)n[nH]c1=S	2.9	0.7

An excerpt from above in order of the UCH37 DUB inh value, highest first:
mol	UCH37 DUB inh
CC(=NNc1ccccc1C(=O)O)c1ccncc1	19
NC(=S)NN=Cc1c(O)ccc2ccccc12	3.3
Cc1ccc(NC(=S)NN=Cc2ccc(OCCC(C)C)cc2)c(C)c1	0.7
COc1ccc(/C=C2/S/C(=N/N=C3CC4CCC3(C)C4(C)C)NC2=O)cc1 (stereo not given)	0.1
COc1cc(C=NO)cc(Br)c1OCc1cccc(Cl)c1	-0.8
CC(=NO)C1(C)N(O)C(C)(C)C(c2ccc(F)cc2)=[N+]1[O-] (stereo not given)	-1.0
CC(C)C[C@H](NC(=O)OC(C)(C)C)C(=O)NN=CC1=Cc2ccccc2OC1C (stereo not given in full)	-52

More structures follow.
SMILES	UCH37 DUB inh	E coli growth
COc1cc(C=NN2CCOCC2)ccc1OCc1ccc(Cl)cc1	0.5	0.72
COc1ccccc1C=NNC(=O)CC(=O)NCc1cccnc1	0.3	0.71
NC(=NO)c1cccc(CS(=O)(=O)c2ccccn2)c1	2.4	0.69
Cc1ccc(S(=O)(=O)Oc2ccc(C=NNC(=O)c3nn(C)cc3[N+](=O)[O-])cc2)cc1	0.8	0.65
CC(=NNC(=O)c1ccc(CN2CCc3ccccc3C2)cc1)c1ccccc1O	-3.7	0.64
COc1ccc(C=NNS(=O)(=O)c2ccc(Br)cc2)cc1COc1ccccc1[N+](=O)[O-]	6.0	0.73
Cc1sc(NN=C/C=C/c2ccccc2)nc1-c1ccccc1	-9.0	0.71
CON=CCc1c([N+](=O)[O-])c(C)nn1C	3.1	0.65
O=Cc1sc(=NS(=O)(=O)c2ccccc2)n(CCCCl)c1Cl	0.8	0.7
CSc1nnc(C(C)(C)C)c(=O)n1N=Cc1ccc(Cl)cc1	1.9	0.7
CCN(Cc1ccccc1)c1ccc(C=NNC(=S)NC(C)C)cc1	-52	0.75
COc1ccc([N+](=O)[O-])cc1C=NNc1nc(N2CCCCC2)nc(N2CCCCC2)n1	5.1	0.7
CCOC(=O)c1c(C)[nH]c(C(=O)NN=Cc2cc([N+](=O)[O-])ccc2O)c1C	7.5	0.65
Cc1ccc(C(=O)ON=C(N)c2ccc(C(F)(F)F)cn2)cc1	2.3	0.7
CC(=NNC(=S)Nc1ccccc1)c1ccc2c(c1)OCO2	0.1	0.63
Cc1nn(C)c(C)c1C=NNC(=O)CCn1nc(C)c([N+](=O)[O-])c1C	-0.8	0.68
CC(Cn1cnc([N+](=O)[O-])n1)=NNC(=O)COc1ccccc1Cl	13	0.72
O=C(NN=CCCc1ccccc1)c1ccccc1	2.9	0.68
S=c1[nH]nc(-c2ccccc2)n1N=Cc1c[nH]c2ccccc12	1.0	0.71
Nc1nonc1-n1nnc(C(=O)NN=Cc2cc(Cl)ccc2O)c1CN1CCCCCC1	3.4	0.71
Cn1c(=O)c2c(ncn2CCC(=O)NN=Cc2ccccc2)n(C)c1=O	4.6	0.68
CC(=O)OC(C(O)=C(C#N)c1nc2ccccc2[nH]1)c1ccccc1 (stereo not given)	-36	0.67
Cc1ccccc1NC(=O)CCC(=O)NN=Cc1ccc(F)cc1	-1.0	0.7
CN(C)c1ccc(C=NNC(=O)C(O)(c2ccccc2)c2ccccc2)o1	-7.8	0.69
O=C(NN=Cc1ccc([N+](=O)[O-])cc1)c1cc(-c2ccc3c(c2)OCO3)n[nH]1	7.0	0.64
O=C(NN=Cc1cccc(O)c1)c1cc2c(ccc3ccccc32)o1	-9.1	0.74
CCOc1ccc(C=NNC(=O)c2nnn(-c3nonc3N)c2-c2ccc(OCC)cc2)cc1	-2.9	0.69
O=C(CNC(=O)C1COc2ccccc2O1)NN=Cc1ccc(O)cc1O (stereo not given)	-4.9	0.69
Cc1cc(C)nc(NN=Cc2cn[nH]c2-c2ccc(F)cc2)n1	5.2	0.71
COc1cccc(C=NNC(=O)CCCC(=O)Nc2ccc(Br)cc2)c1	3.5	0.67
COc1ccc(C=NNC(=O)c2cccnc2)c2ccccc12	-15	0.69
NC(=O)NN=Cc1ccccc1OC(=O)c1ccccc1Br	3.9	0.7
COc1cccc(C=NNC(=O)c2c(C)nc3ccc(Cl)cn23)c1OC	-29	0.68
Cc1ccsc1C=NNC(=O)Cn1nc(C)c([N+](=O)[O-])c1C	7.8	0.66
CN=c1scc(-c2ccc(F)cc2)n1N=Cc1ccc(O)c(O)c1	1.2	0.64
C/C(C=Nn1cnnc1)=C/c1ccccc1	2.9	0.69
COc1ccc(O)c(C=NNC(=O)c2c(C)nnn2-c2nonc2N)c1	3.3	0.62
COc1ccc(C=NNc2ncnc3sc(C)c(C)c23)cc1	2.6	0.68
O=C(Cc1cccs1)NN=Cc1ccco1	2.5	0.72
COc1ccc2nc(C)cc(SCC(=O)NN=Cc3ccco3)c2c1	-0.7	0.71
CC(=NNC(=O)c1ccc(C)nc1)c1ccc2c(c1)CCCC2	19	0.72
CC(=NNC(=O)CSc1nc2ccccc2[nH]1)c1ccncc1	4.5	0.63
CCOc1cc(C=NNC(=O)c2cc(C)[nH]n2)ccc1OC(=O)c1ccc([N+](=O)[O-])cc1	-3.9	0.76
CCc1noc2c1C(=NO)CC(c1ccccc1)C2 (stereo not given)	4.3	0.7
O=[N+]([O-])c1cccc(C=NN2CCN(c3ccccn3)CC2)c1	1.5	0.69
CC12CCC(CC1=NNC(=O)Nc1ccccc1)C2(C)C (stereo not given)	-1.0	0.7

Assay outcomes (PubChem)
